# Insulin prom inh = TRM-6 insulin promoter activity inhibition. TRM-6 cells (human fetal islet line), insulin promoter-eGFP reporter, imaging; reporter expression induced with tamoxifen. inhibition, % at 2 µM. 130,000 tested, 0.9% active. AID 1273;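 active means inhibition above the mean plus 3 SD, with well images judged a real hit on visual review, cut at about 60% in these data, passing the limit was not always enough; inconclusive means inhibition over the cutoff but images rejected on review; inactive means inhibition not above the cutoff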
# HSV augment = HSV replication enhancement. HSV replication augmentation in cells, fold increase. maximum fold increase. 220,000 tested, 0.005% active. AID 1956;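 active means peak rise of 1.5-fold or more in the series; inconclusive means self-fluorescent or not available for retest; tested in PC3 cells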;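 further: first round at 10 µM; read as green reporter fluorescence; hits show the peak of a series up to 25 µM; 1 = signal of infected wells without compound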
# PKD1 inh = inhibitors of human PKD1 kinase | Q15139 | PKD1 kinase fluorescence polarization assay | inhibition, %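 (about 10 µM by stock and volumes)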 | 200,000 tested, 0.056% active;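 active means inhibition of 50% or more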;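 further: controls were vehicle for no effect and a reference inhibitor for full effect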
# RGS16-Gao HTS = regulators of human RGS16-Galphao interaction; O15492+P09471; bead-based flow cytometry RGS16-Galphao binding, fluorescence; actives lie on both sides; binding response (% of control), % at 10 µM; 220,000 tested, 0.38% active; AID 1441;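 active means below 25% or above 175%, edge rows of some plates excepted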;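 further: Galphao activated by GDP with aluminum fluoride before binding; 100% = wells without compound and 0% = beads without RGS; some results beyond the cut were filed as inactive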
# Target sequence (O15492 whole entry, looked up): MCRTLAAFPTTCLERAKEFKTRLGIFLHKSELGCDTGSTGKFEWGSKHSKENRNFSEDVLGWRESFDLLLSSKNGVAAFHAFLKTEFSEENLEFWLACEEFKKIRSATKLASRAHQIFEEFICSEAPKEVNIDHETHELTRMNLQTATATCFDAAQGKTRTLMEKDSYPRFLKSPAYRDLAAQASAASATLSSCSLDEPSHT
# Target sequence (P09471 whole entry, looked up): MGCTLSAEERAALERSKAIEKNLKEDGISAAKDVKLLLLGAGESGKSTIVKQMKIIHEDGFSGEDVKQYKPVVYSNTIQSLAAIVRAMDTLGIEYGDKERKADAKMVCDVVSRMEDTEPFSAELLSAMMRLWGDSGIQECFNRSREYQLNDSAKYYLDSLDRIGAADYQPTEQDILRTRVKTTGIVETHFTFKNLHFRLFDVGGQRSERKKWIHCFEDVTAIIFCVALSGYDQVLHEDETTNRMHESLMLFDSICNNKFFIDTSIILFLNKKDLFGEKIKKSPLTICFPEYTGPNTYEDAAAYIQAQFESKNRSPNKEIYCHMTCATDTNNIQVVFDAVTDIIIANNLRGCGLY
# GALR2 agonist = agonists of human galanin receptor 2 (GALR2). GALR2-expressing cells, agonist activation read-out. O43603. activation, %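 (tested at 5 µM)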. 140,000 tested, 0.48% active;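 active means above mean plus 3 SD of all compounds, about 5% in these data, not always enough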;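 further: 0% = vehicle buffer wells and 100% = reference agonist at full effect; tested in CHO reporter cells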
# Target sequence (O43603 whole entry, looked up): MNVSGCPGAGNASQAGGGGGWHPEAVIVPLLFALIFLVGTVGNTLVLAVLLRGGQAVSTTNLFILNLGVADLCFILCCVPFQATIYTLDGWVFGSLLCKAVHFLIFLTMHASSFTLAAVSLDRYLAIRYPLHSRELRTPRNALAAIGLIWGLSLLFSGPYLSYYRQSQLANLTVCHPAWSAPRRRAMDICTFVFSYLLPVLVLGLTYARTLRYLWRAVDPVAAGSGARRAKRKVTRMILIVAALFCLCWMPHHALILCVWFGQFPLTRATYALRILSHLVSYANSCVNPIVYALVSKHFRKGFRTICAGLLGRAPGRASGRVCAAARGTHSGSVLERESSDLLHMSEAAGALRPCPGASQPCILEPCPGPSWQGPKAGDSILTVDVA
# Insulin prom inh cell count = further read-out of Insulin prom inh, marked with its call; normalized cell count, %; measured here: cell count, toxicity; reference of the scale not given here;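 cells exposed to compound for 48 h; stained nuclei by imaging scaled within each plate; lower means fewer cells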
# HSV augment primary fold = also measured in HSV augment; calls as there; fold increase; compound at 10 µM; measured here: primary screen fold increase 10 uM; tested in PC3 cells;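 GFP signal in the first replicate; 1 = infected wells without compound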
# Active calls of the source: *; i = inactive; u = inconclusive; x = no result given; & = joins results of further samples.
SMILES,Insulin prom inh,Insulin prom inh cell count,HSV augment,HSV augment primary fold,PKD1 inh,RGS16-Gao HTS,GALR2 agonist
COc1ccc(NC(=O)CSc2nnc(-c3ccoc3C)n2CC2CCCO2)cc1 (centres undefined),i,63,i,1,-2,103,-1.0
NC(N)=N/N=C/c1c(Cl)cccc1Cl,32,137,i,0.84&0.89,-5,91&84,-2.0
Cn1c(C(=O)N2CCN(c3ccc([N+](=O)[O-])cc3)CC2)cc2c(=O)[nH]c3ccccc3c21,x,x,i,0.9,-2,101,x
CCN1C(=O)C(O)(C2COC(C)(C)CC2=O)c2ccccc21 (centres undefined),34,140,i,0.95,-2,89,-1.7
Cc1cc(C2CC(=O)Nc3ccccc3S2)c(C)s1 (centres undefined),x,x,i,0.94,x,104,x
COc1cc(NC(=O)CCC(=O)OCCCC(F)(F)C(F)(F)F)nc(OC)n1,x,x,i,1.1,7,95,x
Cc1ccc(CSC2=NCCN2S(=O)(=O)c2ccccc2)cc1,-464,79,i,0.96,-1,103,x
O=C(Cc1ccc(S(=O)(=O)N2CCCC2)s1)Nc1nc2c(s1)CCCC2,-13,220,i,1,-2,95,0.9
S=c1[nH]nc(COc2ccc(Cl)cc2)o1,-15,85,i,0.88,-18,101,-0.9
S=C1NCCc2ccc(Cl)cc2C1c1ccccc1Cl (centres undefined),-15,98,u,x,-2,111,-2.2
COc1cc(/C=C/C(=O)OCC(=O)Nc2cc(S(=O)(=O)N3CCCCC3)ccc2C)ccc1O,15,116,i,0.72,3,67,0.0
CCOC(=O)C1CCCN(C(=O)c2cc(S(=O)(=O)Nc3ccccc3OC)ccc2C)C1 (centres undefined),x,x,i,0.95,x,94,x
Cc1cc(-c2nc(C)c(C(=O)NNS(=O)(=O)c3ccc(Cl)cc3Cl)s2)no1,x,x,i,1.1,x,104,x
COc1ccc(N2CCN(C(CNC(=O)C3CCCCC3)c3cccnc3)CC2)cc1 (centres undefined),-50,94,i,1,7,100,-1.7
S=C(Nc1cccnc1)Nc1ccccc1Br,x,x,i,0.99,-3,99,x
Cc1ccc(C(=O)NC(C(=O)Nc2cccc(S(N)(=O)=O)c2)C(C)C)cc1 (centres undefined),x,x,i,1.2,x,98,x
O=C(Nc1nc(-c2ccc3c(c2)OCO3)cs1)c1ccncc1,42,59,i,0.72,-9,101,-2.0
CN(Cc1ccon1)C(=O)CCc1nnc(CCCCc2ccccc2)o1,x,x,i,0.97,-5,102,x
Cc1ccc(C)n1-n1c(C)nc2sc3c(c2c1=O)CCCCC3,x,x,i,0.98,-4,99,-1.6
COc1ccc(-c2[nH]ncc2CN2CCN(C3CCCCC3)C(=O)C2)cc1F,x,x,i,0.59,-4,104,x
COC(=O)C1=C(NC(=O)C2CCCCC2)CCS1,x,x,i,1.1,-7,56,0.1
COc1ccc2c(c1)-c1nc(/N=C/c3ccccc3O)sc1CC2,x,x,i,1,-2,98,-0.6
O=C(CNC(=O)c1ccccc1)NC1(C(=O)NC2CCCC2)CCCCC1,-7,81,i,0.63,8,97,-1.2
Cc1onc(-c2ccccc2)c1C(=O)Nc1cc(C(F)(F)F)ccc1N1CCOCC1,x,x,i,0.97,-9,102,1.3
CC1=C(C(N)=O)C(c2ccccc2)n2nc(-c3ccncc3)nc2N1 (centres undefined),-6,141,i,0.92,12,105,1.9
COc1ccc(S(=O)(=O)N2CCc3ccccc32)cc1C(=O)OCc1nnc(-c2ccccc2)o1,x,x,i,1.1,-1,104,-1.9
COc1ccccc1CNc1ccc([N+](=O)[O-])cc1C,-14,86,i,0.99,0,108,x
COCCn1c(CN2CC(C)CC(C)C2)nc2c1c(=O)n(C)c(=O)n2C (centres undefined),x,x,i,0.86,-3,128,-2.2
O=C(c1ccc(N2CCCCC2)c([N+](=O)[O-])c1)N(c1ccccn1)c1ccccn1,21,85,i,1,-1,55,x
CCOc1ccc(CC(=O)N2N=C(C)CC2(O)C(F)(F)F)cc1 (centres undefined),-21,128,i,0.9,3,72,-0.2

# The list goes on (two carried over from the part before).
SMILES,Insulin prom inh,Insulin prom inh cell count,HSV augment,HSV augment primary fold,PKD1 inh,RGS16-Gao HTS,GALR2 agonist
O=C(c1ccc(N2CCCCC2)c([N+](=O)[O-])c1)N(c1ccccn1)c1ccccn1,21,85,i,1,-1,55,x
CCOc1ccc(CC(=O)N2N=C(C)CC2(O)C(F)(F)F)cc1 (centres undefined),-21,128,i,0.9,3,72,-0.2
O=C(CSc1nc2ccccc2c(=O)n1-c1ccccc1)N1CCc2ccccc2C1,-22,113,i,0.7,-2,105,-0.6
Cc1cccc(C(=O)N(NC(=O)Oc2ccccc2)C(C)(C)C)c1,-28,94,i,1,-3,98,0.6
CC(=O)Nc1ccc(C#Cc2ccc(NC(C)=O)cc2)cc1,x,x,i,0.83,-11,100,-0.7
COc1cccc(NC(=O)Nc2cccs2)c1,33,129,i,1.1,3,107,-1.6
CCCc1nnc(NC(=O)CCC(=O)N2CCCCC2CC)s1 (centres undefined),x,x,i,0.97,-11,97,-3.2
Cc1cc(C)nc(SCc2cc(=O)c(OC(=O)c3ccc(S(=O)(=O)N4CCCC4)cc3)co2)n1,-31,156,i,0.93,-4,101,-1.1
CCOC(=O)Cn1cc(-c2ccccc2)nn1,-26,74,i,1,-14,105,0.2
CCOC(=O)c1c(NC(=O)CC2SC(N)=NC2=O)sc2c1CCCC2 (centres undefined),-18,106,i,0.9,1,100,-3.4
Cc1ccc(-c2nnc(SCC(=O)O)n2N)cc1,-36,86,i,0.75,-2,101,-0.4
COCCn1c(COc2ccc(C)cc2)nc2ccccc21,-109,110,i,0.89,-11,103,-0.8
Cc1cc2n(c(=O)c1C#N)CCCN2c1ccccc1,-306,56,i,1,-2,105,-3.1
CCC(=O)OCCNc1cc(Sc2nccn2C)c2nonc2c1[N+](=O)[O-],-70,26,i,0.53,-16,93,2.3
C/C=C(/C)C(=O)OC1Cc2c(ccc3ccc(=O)oc23)OC1(C)C (centres undefined),x,x,i,0.8,x,107,x
CCN(CC)CCNc1ccc(CO)c2sc3ccccc3c(=O)c12,-32,127,i,0.59,-16,101,0.6
CCOC(=O)C1C(c2cccc(F)c2)NC(=S)NC1(O)C(F)(F)F (centres undefined),-14,150,i,0.96,8,52,-2.4
COCCSc1nnc(NC(=O)Cc2ccc(OC)c(OC)c2)s1,x,x,i,0.79,-1,109,x
CCOc1ccc(-n2c(=O)c3sccc3n(CC(=O)NCCc3ccc(OC)c(OC)c3)c2=O)cc1,53,154,i,0.91,-1,103,x
O=C(COc1ccc(C(=O)c2ccccc2)cc1)NCC(=O)Nc1ccccc1Br,-3,61,i,1,-4,120,-2.3
CCOc1ccc(N(CC(=O)N2CCN(c3ccccc3)CC2)S(=O)(=O)c2c(C)noc2C)cc1,x,x,i,0.89,-7,106,-0.7
N#Cc1ccc(S(=O)(=O)N2CCN(c3ncccn3)CC2)cc1,x,x,i,0.98,x,103,x
CCc1ccn2cc(-c3ccc4c(c3)OCO4)nc2c1,x,x,i,0.85,x,97,x
CCC1=Nc2cc(C(=O)NCc3ccco3)ccc2Sc2ccccc21,-38,101,i,0.6,6,111,-0.6
CCOC(=O)c1ccc(NC(=O)CNS(=O)(=O)c2ccccc2)cc1,-13,177,i,0.84,-5,92,-1.5
CC(C)c1cc(C(=O)O)c2cnn(C(C)C)c2n1,x,x,i,1.2,x,97,x
CCn1c(SCC(=O)N/N=C/c2ccc(C)o2)nnc1-c1ccc(C)cc1,-97,77,i,0.97,7,97,-2.0
CCOC(=O)/C(C#N)=C1/SC(CC)C(=O)N1c1ccc(Br)cc1 (centres undefined),-3,64,i,1.1,3,102,-2.1
CCN(CC)c1ccc(/C=N/N2C(=O)c3ccccc3C2=O)c(O)c1,-20,60,i,1.1,-3,74,1.8
O=C1C(Cl)=C(N2CCOCC2)C(=O)N1c1ccccc1Cl,x,x,i,0.68,5,60,-2.5
CC1CCN(C(c2nnnn2CCc2ccccc2)C(C)C)CC1 (centres undefined),12,111,i,0.95,-3,100,x
CCOc1ccc(Br)cc1S(=O)(=O)Nc1cccc(S(=O)(=O)N(C)c2ccccc2)c1,-59,94,i,0.85,-2,172,0.2

# At a glance, some entries already given:
SMILES,Insulin prom inh,Insulin prom inh cell count,HSV augment,HSV augment primary fold,PKD1 inh,RGS16-Gao HTS,GALR2 agonist
N#Cc1ccc(S(=O)(=O)N2CCN(c3ncccn3)CC2)cc1,x,x,i,0.98,x,103,x
CCc1ccn2cc(-c3ccc4c(c3)OCO4)nc2c1,x,x,i,0.85,x,97,x
CCC1=Nc2cc(C(=O)NCc3ccco3)ccc2Sc2ccccc21,-38,101,i,0.6,6,111,-0.6
CCOC(=O)c1ccc(NC(=O)CNS(=O)(=O)c2ccccc2)cc1,-13,177,i,0.84,-5,92,-1.5
CC(C)c1cc(C(=O)O)c2cnn(C(C)C)c2n1,x,x,i,1.2,x,97,x
CCn1c(SCC(=O)N/N=C/c2ccc(C)o2)nnc1-c1ccc(C)cc1,-97,77,i,0.97,7,97,-2.0

# (further entries)
SMILES,Insulin prom inh,Insulin prom inh cell count,HSV augment,HSV augment primary fold,PKD1 inh,RGS16-Gao HTS,GALR2 agonist
O=C(Cn1nnc(-c2ccncc2)n1)N(C1CCCCC1)C1CCCCC1,-9,98,i,0.9,1,98,0.0
CCOC(=O)Cn1nc(/C=C/c2ccc(C(C)C)cc2)ccc1=O,-3,112,i,1,-10,101,-2.2
CC(C)C1Cc2c(C#N)c(N)n(C)c(=S)c2CO1 (centres undefined),29,88,x,x,9,98,-1.8
S=C(NCc1ccco1)Nc1ccccc1Cl,x,x,i,1.2,x,101,x
Cc1ccnc(N/C=C(/NC(=O)c2ccccc2)C(=O)N/N=C\c2ccc(F)cc2)n1,x,x,i,1,-1,95,0.8
COc1ccc(OC)c(Cc2nnc(CCC(=O)NC3C4CC5CC(C4)CC3C5)o2)c1 (centres undefined),x,x,i,0.91,1,113,x
NNC(=S)Nc1cccc(Cl)c1,x,x,i,1,x,98,x
CCCC(=O)Nc1sc(C)c(-c2ccc(OC)cc2)c1C#N,x,x,i,1.1,-9,121,-0.8
Cn1c(=O)[nH]c(=O)c2c1nc(N1CCN(Cc3ccccc3)CC1)n2CCSc1ncccn1,x,x,i,0.79,-16,102,-1.9
CC1CCCN(c2ccc([N+](=O)[O-])cc2C(=O)c2ccccc2)C1 (centres undefined),-350,8,i,0.69,-1,127,2.1
Cc1cccn2c(=O)c(/C=C(\C#N)S(=O)(=O)c3ccc(Cl)cc3)c(N3CCC(C(N)=O)CC3)nc12,14,76,i,0.91,-4,99,2.2
Cc1occc1C(=O)NCCc1cccc(Cl)c1,4,93,i,0.88,-5,111,-1.3
Cc1c(C)c2cc(Cl)c(O)c(CN3CCCC(C)C3)c2oc1=O (centres undefined),-46,63,i,0.81,2,97,2.5
Cc1oc2nc(SCC(=O)Nc3ccc(S(N)(=O)=O)cc3)nc(NC(=O)c3ccccc3)c2c1C,x,x,i,0.75,-2,102,-1.1
CC(C)=CCC/C(C)=C/C=N/NC(=O)c1ccccc1[N+](=O)[O-],x,x,i,1.3,-1,99,-3.3
CCCCn1nc2cc(C(=O)NCc3ccc(OC)cc3)ccc2c1OCC,-3,77,i,0.79,-5,83,-1.4
COCCCNC(=O)c1cc(OC)c(OC)c(OC)c1,x,x,i,1,7,68,-1.5
CCOC(=O)c1c(C)n(C)c2ccc(OC(=O)c3ccc([N+](=O)[O-])cc3)cc12,6,95,i,1.2,-2,102,0.2
COc1cc2oc3ccccc3c2cc1N(CC(=O)N(C)C)S(=O)(=O)c1ccccc1,-23,120,i,1.1,4,105,-0.9
COc1ccc([N+](=O)[O-])cc1NC(=O)C(C)OC(=O)c1cccnc1 (centres undefined),43,80,i,0.88,-1,105,x
COc1ccc(/C(N)=N/OC(=O)c2cccc([N+](=O)[O-])c2C)cc1OC,-22,77,i,0.96,-4,101,-1.2
Cc1nc2ccccc2c(=O)n1NC(=O)c1cccnc1Cl,x,x,i,0.9,4,97,x
O=C(Nc1nnc(SCc2ccc(F)cc2)s1)c1ccco1,-21,144,i,1,3,103,0.4
CSc1nc(N)n2nc(C(C)(C)C)cc2n1,x,x,i,0.99,x,99,x
O=C(CCCC(=O)N(c1ccc2c(c1)OCCO2)C(C(=O)NC1CCCCC1)c1ccc(Cl)cc1)Nc1ccccn1 (centres undefined),x,x,i,0.9,-9,102,-0.9
CCCCCCOC(=O)c1ccc(NC(=O)c2cc(OC)c(OC)c(OC)c2Br)cc1,62,107,i,0.89,-5,106,0.6

# Exported with bars between the fields: 2 of the compounds above.
structure | Insulin prom inh | Insulin prom inh cell count | HSV augment | HSV augment primary fold | PKD1 inh | RGS16-Gao HTS | GALR2 agonist
COc1cccc(NC(=O)Nc2cccs2)c1 | 33 | 129 | i | 1.1 | 3 | 107 | -1.6
CCCc1nnc(NC(=O)CCC(=O)N2CCCCC2CC)s1 (centres undefined) | x | x | i | 0.97 | -11 | 97 | -3.2
